Bioassay records (PubChem BioAssay)
Autofluor counter: flagged as autofluorescent in microsphere protease counterscreen | compound autofluorescence counterscreen, microsphere flow cytometry; active compounds read high | fluorescence intensity (test concentration not listed) | actives 3.1% (n = 360,000);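 active = at least 3 SD above the mean of all compounds, about 16000 in these data; inconclusive = too few beads counted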;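 also: 100 nL of 1 mM stock went into each well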
BJeLR lethal: MLPCN primary cell-based screen for lethality selective to Ras in HRASV12 cells | BJeLR (HRASV12) viability, CellTiter-Glo ATP luminescence, 48 h; reference of the scale not given here | inhibition, % (no concentration beside the values) | actives 0.17% (n = 300,000) | AID 1554, 2009;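 active = replicate mean above 50%; inconclusive = above 50% but judged a plate artefact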;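 also: 50 nL library stock added to about 25 µL; numbers are from one replicate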
Mtb hypoxia inh: PubChem AID 1159583; fluorescence inhibition, % (test concentration not listed); M. tuberculosis hypoxia-regulated fluorescent reporter, fluorescence; actives 0.1% (n = 300,000);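 active = 35 to 45% if threefold the growth effect, above 45% if 1.5-fold the growth effect; inactive = the rest, general growth blockers included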;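 also: wells of about 50 µL received 100 nL stock; 0% = vehicle wells and 100% = reference inhibitor wells; whole bacteria with a GFP reporter of the hypoxia response; strong numbers were not always called active; many hits fall short of the cut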
Sa ugtP lethal: growth inhibition of ugtP-null S. aureus, primary screen, RN4220 ugtP deletion, OD600. AID 1259309, 2017. 16 h; some inactives read as strong as hits. growth inhibition, % (concentration not given with the values). actives 0.54% (n = 330,000);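 active = z-score under -3 and OD600 up to 0.15 on both plates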;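 also: plate controls were untreated wells for no effect and antibiotic for full effect; wells of about 80 µL received 100 nL stock; the first replicate is given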
PrP UTR inh: inhibition of PrP 5' UTR reporter expression; AID 488862, 2010; inhibition, % (test concentration not listed); actives 0.35% (n = 340,000); cell-based PrP 5' UTR mRNA reporter, plate reader;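 active = every replicate at 50% or more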;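 also: 0 = median of the neutral control wells; tested in H4 reporter cells; numbers are from one replicate; inactives centre near -14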
Sa RN4220 lethal: growth inhibition of S. aureus RN4220, primary screen, OD600. inhibition, % (concentration not given with the values). 16 h. actives 0.33% (n = 330,000);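 active = z-score of -3 or lower and OD600 up to 0.18 on both plates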;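 also: plate controls were untreated cells for no effect and reference antibiotic for full effect; stock transfer was 100 nL into about 80 µL; one replicate is shown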
Mtb hypoxia inh growth: further read-out of Mtb hypoxia inh, marked with its call; growth inhibition, %; measured here: M. tuberculosis growth (absorbance);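 0% = vehicle and 100% = reference antibiotic; read after six days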
* hit, by the source's call; ? = inconclusive; / = no result given.

Structure	BJeLR lethal	Sa ugtP lethal	PrP UTR inh	Mtb hypoxia inh growth	Mtb hypoxia inh	Sa RN4220 lethal	Autofluor counter
CCOC(=O)Cc1csc(SCC(=O)NC(C)C23CC4CC(CC(C4)C2)C3)n1 (stereo not drawn)	19	-1	2	0	5	3.5	9567
CC(C)N(Cc1nccn1C)C(=O)c1ccc2oc(Cc3ccccc3)nc2c1	4	3	-4	16	9	4.0	5548
CCOC(=O)c1cc2n(c1/N=C/N(C)C)-c1ccccc1C2=O	9	/	5	/	/	/	5444
Cc1nc(C(=O)N(C)C)nn1-c1cc(Cl)cc(Cl)c1	-13	4	-12	4	5	6.7	4234
Cc1ccccc1N1CCN(CCCN2C(=O)C3CCCCN3C2=O)CC1 (stereo not drawn)	15	6	11	10	3	-4.0	3461
COc1ccc(-c2nnn(CC(=O)N(CCN3CCOCC3)C(C(=O)NC3CCCCC3)c3ccco3)n2)cc1 (stereo not drawn)	0	5	-21	7	4	-1.9	3196
CS(=O)(=O)c1ccccc1C(=O)Nc1ccccc1Cc1ccccc1	-4	0	-13	4	2	-3.6	3060
CCCCN(c1ccc(C(=O)OC)cc1)S(=O)(=O)c1ccccc1	-3	15	-22	1	5	15	4360
COc1cccc(OC)c1C(=O)Nc1nc(COc2ccccc2)cs1	4	4	-25	-12	8	10	2199
COC(=O)c1c(C)[nH]c(C(=O)COC(=O)Cn2cc(C(F)(F)F)ccc2=O)c1C	/	4	-13	-2	-2	4.6	4195
Nc1nonc1N/N=C\c1ccccc1	6	/	-9	/	/	/	3869
CC(C)(C)OC(=O)NCCCC(CCCNC(=O)OC(C)(C)C)C(=O)O	-1	-6	-12	2	-2	-11	3241
O=C(CSc1nc(Cc2ccccc2)nc2ccccc12)Nc1nc2c(s1)CCCC2	2	-6	-34	2	12	3.3	5055
COc1ccc(C(=O)NNC(=O)CSc2nnc3ccccn23)cc1OC	/	0	-6	0	6	1.9	3516
S=C(NCc1ccccc1)N/N=C/c1cccs1	-10	/	-16	/	/	/	3028
CCCCn1c(N)c(N(CC(C)C)C(=O)Cc2ccc3c(c2)OCCO3)c(=O)[nH]c1=O	-5	4	6	14	1	-0.1	?
CC(=O)N1C(C)(C)CC(=NOS(=O)(=O)c2ccccc2)CC1(C)C	/	-1	-2	4	4	3.2	4302
Cc1cc(C)nc(N2CCCC(C(=O)NC3CC3)C2)n1 (stereo not drawn)	-4	1	-16	2	0	0.3	3544
COc1nnc(-c2ccc(C)c(S(=O)(=O)NC(C)(C)CO)c2)c2ccccc12	-5	-1	-6	3	-4	-4.5	3726
CCC(=O)Nc1ccc(S(=O)(=O)N2CCC(c3nc4ccccc4[nH]3)CC2)cc1	4	9	-10	2	-1	2.1	5250

One compound at a time, from the list above. Values in the order: BJeLR lethal, Sa ugtP lethal, PrP UTR inh, Mtb hypoxia inh growth, Mtb hypoxia inh, Sa RN4220 lethal, Autofluor counter
Results for CCCCn1c(N)c(N(CC(C)C)C(=O)Cc2ccc3c(c2)OCCO3)c(=O)[nH]c1=O → -5, 4, 6, 14, 1, -0.1, ?
Results for S=C(NCc1ccccc1)N/N=C/c1cccs1 → -10, /, -16, /, /, /, 3028
Results for Nc1nonc1N/N=C\c1ccccc1 → 6, /, -9, /, /, /, 3869
Results for COc1cccc(OC)c1C(=O)Nc1nc(COc2ccccc2)cs1 → 4, 4, -25, -12, 8, 10, 2199

Next part
Structure	BJeLR lethal	Sa ugtP lethal	PrP UTR inh	Mtb hypoxia inh growth	Mtb hypoxia inh	Sa RN4220 lethal	Autofluor counter
Cc1nc(-c2ccccc2)sc1-c1nc(-c2ccncc2)ncc1S(=O)(=O)c1ccccc1	11	3	-11	4	-4	-0.1	4011
CCCn1nnc(NC(=O)COc2ccc(CC)cc2)n1	-4	6	-7	6	5	1.4	2937
COc1ccc(CC(=O)N2N=C(C)CC2(O)C(F)(F)F)cc1OC (stereo not drawn)	/	3	-17	6	-3	3.6	4442
O=C(C1CCCN1S(=O)(=O)c1cccc2nsnc12)N1CCN(c2ccc(F)cc2)CC1 (stereo not drawn)	0	8	1	-10	8	4.8	4107
Cn1cc(S(=O)(=O)N2CCc3ccccc32)cc1C(=O)Nc1ccc(Cl)cc1	3	11	16	0	0	15	4820
CCOC(=O)c1c(NC(=O)c2ccccc2)sc2c(O)c(CN(CC)CC)ccc12	2	18	-27	/	/	-0.1	9966
Cc1ccc(C(=O)N/C(=C\c2cccc([N+](=O)[O-])c2)C(=O)NC(Cc2ccccc2)C(=O)O)cc1 (stereo not drawn)	-1	-3	-17	-6	-4	-2.0	4435
N#Cc1c(NC(=O)C2CC=CCC2C(=O)O)sc2c1CCCCCC2 (stereo not drawn)	1	-2	-7	8	-5	9.1	2137
CC1CN(C(C)CO)C(=O)c2cccc(NC(=O)c3ccncc3)c2OC1CN(C)Cc1ccc(Cl)c(Cl)c1 (stereo not drawn)	/	8	/	2	-1	8.0	/
COc1ccc(C(=O)Nc2cccc(/C(C)=N/NC(=O)c3ccc([N+](=O)[O-])cc3)c2)cc1OC	-1	/	-17	/	/	/	3809
CC(C)CC(NC(=O)C1CCCCC1)C(=O)NCc1ccccn1 (stereo not drawn)	-4	-3	-23	10	14	5.6	3868
Cn1nc(C(=O)NCc2ccc(F)cc2)c2ccccc2c1=O	2	1	-8	16	11	1.1	22634*
Cn1cc(/C=C(\NC(=O)c2ccccc2Cl)C(=O)NCCN2CCOCC2)c2ccccc21	-6	-1	3	-7	-8	3.8	4744
CCc1nc2ccccc2nc1N1CCN(S(=O)(=O)c2c(C)cc(Cl)cc2C)CC1	10	8	/	3	8	-2.5	5375
O=C(CSc1ccc([N+](=O)[O-])cc1)OCC(=O)N1CCCC1=O	/	9	1	1	6	6.4	2925
O=C(NCc1ccccc1Cl)c1cccc(NC2=NC3CS(=O)(=O)CC3S2)c1 (stereo not drawn)	1	8	-12	6	-2	14	5779
Clc1ccc(SCc2nc3ccccc3[nH]2)cc1	2	12	-81	0	0	-1.2	21863*
O=S(=O)(NCc1cccs1)NCc1ccccc1F	2	2	-23	8	-4	-1.2	2118
CN(C(=O)c1cccc(NC(=O)Cc2ccc(NC(=O)C3CCN(C(=O)C4CCC4)CC3)cc2)c1)C1CCC1	/	-6	-11	4	-4	4.8	3518
CCC1CCCCN1C(=O)CCc1nnc(C2CCCCC2)o1 (stereo not drawn)	5	3	9	14	-6	2.1	4453
COc1ccccc1N1CCN(C(=O)c2oc3ccccc3c2C)CC1	/	1	-33	7	3	3.2	12866
CCc1nn(CC(=O)NCCN2CCN(C)CC2)c(=O)c2cc3occc3n12	-1	-4	-21	1	8	-11	2773
O=C(Cc1coc(-c2ccc(F)cc2)n1)NCc1ccccc1	1	-6	-9	8	6	-9.0	3192
O=C(NCCCN1CCCC1=O)Nc1cc(Cl)ccc1Cl	10	8	-17	-8	15	0.1	4531
COc1ccc2c(=O)c(-c3ccc4c(c3)OCO4)coc2c1	22	-10	3	10	11	3.2	3967
CC(=O)c1ccc(N(CC(=O)NCCc2ccccc2)C(=O)c2csnn2)cc1	1	/	11	/	/	/	3683
Cc1cc(OCC(O)CN2C(C)CCCC2C)ccc1C(C)C (stereo not drawn)	2	23	-24	4	9	5.9	2105
CC(=O)C1=C(C)NC(C)=C(C(C)=O)C1c1ccccc1	4	4	-9	9	15	5.7	3986
COc1cc(-c2nc(C(=O)NC3CCCCC3)cc3c2[nH]c2ccccc23)cc(OC)c1OC	-3	9	-27	/	/	-5.2	6038
Cc1ccc(C2=NCCn3nc4cc([N+](=O)[O-])ccc4c32)cc1	0	0	4	7	-1	-1.6	3276
CC1CN(C(C)CO)C(=O)c2cc(NC(=O)Nc3ccc4c(c3)OCO4)ccc2OC1CN(C)S(C)(=O)=O (stereo not drawn)	/	-4	/	9	5	0.6	/
Cc1ccccc1Cn1c(=O)sc2ccccc2c1=O	2	1	-21	8	6	-7.7	4745
COc1cccc(C(=O)OCC(=O)c2ccc(Br)s2)c1OC	/	11	-35	/	/	4.7	3133
CC(C(=O)OCC(=O)c1ccc(Br)cc1)N1C(=O)C2C3C=CC(C3)C2C1=O (stereo not drawn)	3	10	-13	-1	3	1.1	5065
O=C(CSc1nc2sccc2c(=O)[nH]1)N1CCN(c2ccccc2)CC1	12	7	-16	8	6	0.2	5337
COc1ccc(-c2[nH]c3ccccc3c2SCCNC(=O)c2ccccc2)cc1	0	-29	-25	1	3	-20	6834
CN(C)C(=O)CN1CCN(C(=O)CCl)CC1	-1	12	-14	16	15	5.7	4382
CC(C)CN1CCN(Cc2cc3ccccc3[nH]2)CC1CCO (stereo not drawn)	2	-5	-13	7	-11	0.8	4985
Cc1ccc(C)c(CN2C(=O)c3ccccc3S(=O)(=O)c3ccc(C(=O)N4CCN(C)CC4)cc32)c1	-4	8	5	-8	1	4.1	4722
Fc1cccc(Cl)c1CNn1cn[nH]c1=S	-6	7	-17	14	3	2.6	2151
C/C(=N\Nc1cc(C(F)(F)F)ccc1Cl)c1ccccc1O	-5	/	-18	/	/	/	2184
Cc1ccc(-n2cc(CN3CCN(c4ccccn4)CC3)c(-c3ccc(F)cc3)n2)cc1	0	-6	-14	10	-8	4.1	4280
O=C(Cc1ccc(S(=O)(=O)N2CCCCC2)cc1)NCc1ccc(Cl)cc1	/	13	2	-6	3	9.0	6728
CC1CC(C)CN(S(=O)(=O)c2ccc3c(c2)n(C)c(=O)c(=O)n3C)C1 (stereo not drawn)	4	5	-12	4	9	3.1	4184
COC(=O)CC(=O)c1ccc2c(c1)OCO2	0	2	-18	8	15	2.9	4502
Cc1ccc(N2C(=O)NC(=O)/C(=C\C=C\c3ccco3)C2=O)cc1C	30	3	-47	-4	-2	-4.3	2147
COc1ccc(C(=O)NC(=S)Nc2nnn(C)n2)cc1	9	12	-5	2	7	2.8	2273
CCCCS(=O)(=O)N1CCCC(C(=O)Nc2ccc(Cl)cn2)C1 (stereo not drawn)	3	12	-49	12	14	9.2	3210
O=C(Oc1ccccc1C(=S)N1CCOCC1)c1ccccc1	-9	10	-17	2	16	3.1	5083
COc1ccc(CSc2nnc(Cc3sc(-c4ccccc4)nc3-c3ccccc3)o2)cc1	-10	4	4	/	/	4.1	4496
Cc1ccc(C(C(=O)NCc2ccco2)N(C(=O)CNC(=O)c2cccs2)c2ccc(C)cc2)cc1 (stereo not drawn)	6	-2	-16	3	15	1.1	5541
O=C(CN(C(=O)CCC(=O)Nc1ccccn1)C1CCCC1)NCc1ccccc1	-2	6	-12	12	12	-1.2	4058
